Calb FLC: C. albicans growth modulation with fluconazole; C. albicans CaCi-2 (fluconazole-resistant clinical isolate) + fluconazole, Alamar Blue growth, 48 h; growth inhibition, % (no concentration beside the values); 0.57% of 300,000 active;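 active = most replicates above 75%; inconclusive = exactly half above 75%; inactive = most below 75%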;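 also: all wells also contain fluconazole at 8 µg/ml as a sub-toxic cotreatment; 0% = median of DMSO wells and 100% = median of geldanamycin control wells; wells of about 8 µL received 7.5 nL stock; the first replicate is given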
Vif A3G: HIV-1 Vif–A3G interaction blockers – biochemical, TR-FRET, GST-Vif 1-94, biotin-A3G peptide, dose response retest, primary screen (AID 1117319). TR-FRET GST-Vif / biotin-A3G peptide binding; higher % means a stronger effect; test concentration not given here; strong numbers were not always called active. one-dose inhibition, %; IC50 in µM for titrated hits. 0.57% of 260,000 active;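 active = above the screen mean plus three standard deviations and confirmed in dose response; inconclusive = results disagree or hit not tested in dose response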;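 also: Vif residues 1-94 fused to GST binding biotinylated APOBEC3G peptide 110-148; 0% = full assay without inhibitor and 100% = GST in place of GST-Vif; retest series ran down from 100 µM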
Beta2AR agonist: activates human beta-2 adrenergic receptor causing internalization | P07550 | Am2.2-beta2AR cells, FAP receptor internalization, flow cytometry; reference of the scale not given here | response, % (test concentration not listed) | 0.43% of 340,000 active | AID 504454;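 active = response above a set limit, near 3 SD of response in nonfluorescent compounds, cut at about 42% in these data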;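 also: stock transfer was 100 nL into about 11 µL; a reference agonist was the positive control; negative values mostly stem from fluorescent compounds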
Target sequence (P07550 whole entry, looked up): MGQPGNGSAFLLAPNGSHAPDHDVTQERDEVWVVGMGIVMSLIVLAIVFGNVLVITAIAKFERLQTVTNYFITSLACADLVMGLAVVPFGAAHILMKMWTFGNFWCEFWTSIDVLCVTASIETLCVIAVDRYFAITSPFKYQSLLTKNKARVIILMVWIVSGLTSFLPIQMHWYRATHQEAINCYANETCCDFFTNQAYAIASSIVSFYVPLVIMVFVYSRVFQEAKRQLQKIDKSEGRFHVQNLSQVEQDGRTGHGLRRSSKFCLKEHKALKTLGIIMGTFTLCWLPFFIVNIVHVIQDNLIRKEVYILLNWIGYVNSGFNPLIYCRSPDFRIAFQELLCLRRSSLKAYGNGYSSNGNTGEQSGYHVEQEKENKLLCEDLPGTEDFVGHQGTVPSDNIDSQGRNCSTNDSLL
HNF4A DNA FP: change in binding of human HNF4 alpha to DNA | activity change, % at 10 µM | P41235 | 0.3% of 360,000 active | HNF4a-FITC DNA binding, fluorescence polarization, 1 h; in the data active = activity change above about 30%, passing the limit was not always enough;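 also: controls were the assay level and a saturating level of protein; the project sought stronger binding though the title names inhibitors; some compounds called inactive have numbers as strong as hits; positive values seem to mean higher polarization but the record does not say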
Target sequence (P41235 whole entry, looked up): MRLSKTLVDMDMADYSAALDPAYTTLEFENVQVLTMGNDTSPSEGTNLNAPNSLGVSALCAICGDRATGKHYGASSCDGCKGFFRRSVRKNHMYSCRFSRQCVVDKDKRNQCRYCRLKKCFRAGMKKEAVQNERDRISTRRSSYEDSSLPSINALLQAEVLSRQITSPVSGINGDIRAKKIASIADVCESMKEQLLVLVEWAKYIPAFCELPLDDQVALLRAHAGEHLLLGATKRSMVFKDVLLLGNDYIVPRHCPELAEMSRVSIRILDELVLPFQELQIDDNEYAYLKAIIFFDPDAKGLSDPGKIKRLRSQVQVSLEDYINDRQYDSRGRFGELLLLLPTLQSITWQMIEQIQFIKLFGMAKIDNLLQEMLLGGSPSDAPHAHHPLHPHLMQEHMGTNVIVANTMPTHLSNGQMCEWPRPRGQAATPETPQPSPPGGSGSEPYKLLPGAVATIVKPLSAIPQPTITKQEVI
ALR H2O2 inh: human ALR oxidase inhibition via reduced H2O2 | purified ALR, DTT oxidation, H2O2 HRP-luminol luminescence | inhibition, % (concentration not given with the values) | 3.8% of 290,000 active | AID 485317;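 active = mean and each replicate at 75% or more; inconclusive = only one of the two met; inactive = neither met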;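 also: stock transfer was 7.5 nL into about 7.5 µL; 0% = neutral wells and 100% = wells with inactivated enzyme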
LANA-H2A inh: blocks KSHV LANA binding to histone H2A/H2B; AID 2629; cell-free LANA-H2A/H2B peptide, fluorescence polarization; inhibition, % (concentration not given with the values); 0.6% of 320,000 active; in the data active = inhibition mostly above about 10%, no sharp cut-off; inactive = mostly below about 6.7%;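 also: stock transfer was 7.5 nL into about 10 µL; 0% = median of vehicle wells and 100% = median of positive control wells; one replicate is shown; the record names a cut of 25% in any replicate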
RanGTP-Imp inh: inhibitors of RanGTP-importin-beta interaction, primary screen, biochemical, FRET, CFP-Ran, YFP-importin-beta, homogeneous | cell-free CFP-Ran/YFP-importin-beta FRET ratio | 1.1% of 300,000 active | inhibition, % (concentration not given with the values);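 active = most replicates above 15%; inconclusive = exactly half above 15%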;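 also: 0% = DMSO wells and 100% = Ran loaded with GDP instead of GTP; wells of about 40 µL received 100 nL stock; the first replicate is given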
* marks the source's active call; other numbers are inactive results; ? = inconclusive; . = no result given; & = joins results of further samples.

mol	Calb FLC	Vif A3G	Beta2AR agonist	HNF4A DNA FP	ALR H2O2 inh	LANA-H2A inh	RanGTP-Imp inh
CCN(C(=O)CSc1nc2scc(-c3ccccc3)c2c(=O)n1C)C1CCS(=O)(=O)C1 (stereo not given)	.	.	3	-3.7	-5	0.6	.
CCOC(=O)c1c(NC(=O)CSc2nnc(Cc3ccccc3)o2)sc(C)c1C	?	2%	-3	-0.4	5	-3.9	-6.0
COc1ccc(-c2nc(CS(=O)CC(=O)NCc3ccc(C)cc3)c(C)o2)cc1OC (stereo not given)	-1	.	-5	0.7	99*	-1.9	?
COc1ccc(CCNC(=O)CSCc2ccc([N+](=O)[O-])cc2)cc1OC	?	2%	2	0.9	-11	-5.0	-0.4
CCOCCc1nnc(NC(=O)C2CC(=O)N(c3ccc(OCC)cc3)C2)s1 (stereo not given)	-1	.	-4	0.1	7	1.3	0.1
CC1(C)CC(=O)C(C=NCCN2CCN(CC(=O)Nc3ccc(Cl)cc3)CC2)=C(O)C1	5	-3%	-6	-1.3	44	-3.0	-1.1
COC(=O)/C=C1\SC(N2CCOCC2)=C(c2ccc(OC)cc2)C1=O	-4	-1%	1	-2.1	14	0.2	-4.4
Cc1ccc(N2C(=O)CC(SCC(=O)Nc3ccc(S(N)(=O)=O)cc3)C2=O)cc1 (stereo not given)	-4	.	-1	1.3	99*	1.9	-2.7
CCn1cc(C2CC(=O)NC2=O)c2ccccc21 (stereo not given)	-2	11%	2	11	-2	0.5	0.4
c1c2c(cc3sc(N4CCOCC4)nc13)OCO2	0	9%	2	0.1	97*	-2.0	8.1
CNC(=S)N1N=C(c2ccc(C)cc2)CC1c1ccc(Br)cc1 (stereo not given)	21	-19%	1	-1.4	-8	-0.8	3.4
COCCOCCn1c(/C=C/c2ccccc2)nc2ccccc21	-3	-5%	-12	-3.4	0	0.2	0.6

Next section.
mol	Calb FLC	Vif A3G	Beta2AR agonist	HNF4A DNA FP	ALR H2O2 inh	LANA-H2A inh	RanGTP-Imp inh
COc1ccc(N2C(=O)CC(n3cnc4ccccc43)C2=O)cc1 (stereo not given)	8	3%	1	3.9	-11	-5.0	?
COc1ccccc1CN(C)C(=O)CSc1nnc(C2CC2)n1C1CC1	.	8%	-8	-2.3	1	0.3	.
O=C(NCc1cc([N+](=O)[O-])ccc1O)c1cccc(NS(=O)(=O)c2ccccc2)c1	16	.	4	0.5	6	-2.6	-8.1
COc1ccc(Nc2nc3ccc(C)cn3c(=O)c2/C=N/O)cc1	?	-4%	-5	-0.8	-4	-3.2	0.9
Cc1ccc(S(=O)(=O)N/N=C/c2ccccc2F)cc1[N+](=O)[O-]	20	.	12	1.2	5	-5.8	-1.9
COCCn1c(SCC(=O)NC(=O)NCc2ccccc2)nc2ccccc21	-2	8%	0	2.5	-4	2.2	0.9
CC(=O)c1c(O)c2ccccc2n(Cc2ccccc2)c1=O	-6	5%	-6	-4.9	-1	0.7	2.6
COc1cccc(OC)c1OCCCSc1nc(C)cc(=O)[nH]1	-3	-4%	-1	-1.7	-2	0.2	-0.3
Cc1ccc(NC(=O)CSc2nnc(N)s2)c([N+](=O)[O-])c1	-4	-3%	1	-0.3	0	3.9	6.7
O=C1NC2(O)C(=O)c3ccccc3C2(O)N1 (stereo not given)	-7	10%	0	-1.1	-15	1.6	1.5
Cc1ccc(NC(=O)C2CCCN2S(=O)(=O)c2ccc3c(c2)CCC(=O)N3)cc1Cl (stereo not given)	-5	3%&-6%	16	0.1	-1	-2.5	2.8
CCCCC(=O)O	-12	.	.	3.8	-6	3.3	2.3

More entries follow:
mol	Calb FLC	Vif A3G	Beta2AR agonist	HNF4A DNA FP	ALR H2O2 inh	LANA-H2A inh	RanGTP-Imp inh
CCN(CC(=O)Nc1ccc(NC(C)=O)cc1)C(=O)C1CCN(C(=O)c2ccccc2C)CC1	.	0%	-5	-4.6	.	.	.
COC(=O)CCC(=O)NC(=S)Nc1ccc(S(=O)(=O)Nc2cc(C)on2)cc1	27	.	-1	1.3	-8	2.9	3.8
O=C(c1ccc(O)c(Cl)c1)N1CCN(S(=O)(=O)c2ccccc2)CC1	11	.	-3	-4.1	4	-2.4	0.7
CC(C)CCNC(=O)c1ccc(Cl)c(NC(=O)Cc2ccccc2)c1	?	.	.	.	-4	0.9	-1.7
Cc1ccc2c(C(=O)CN3CCSCC3)c(C)[nH]c2c1	-7	0%	-1	1.3	-18	-5.5	.
CCN1CCN(c2nc3ccccc3nc2C(C#N)S(=O)(=O)c2ccc(C)c(C)c2)CC1 (stereo not given)	16	-4%	-1	0.7	-21	2.4	75*
Cc1ccc2nc3[nH]c(=O)[nH]c(=O)c3c(N)c2c1	.	-7%	-2	-1.7	.	.	.
COc1ccccc1Oc1nc(-c2ccccc2)cc(C)c1S(C)(=O)=O	36	-1%	10	-1.5	.	.	0.8
COc1ccc(C2Nc3cccc4cccc(c34)N2)cc1Br	0	7%	4	-3.2	-87	5.9	-10
CCOC(=O)c1cccc(NC(=O)CSc2nnc(-c3ccncc3)n2CCCOC)c1	-22	1%&3%	-5	1.1	.	-4.0	-0.2
O=C(NCc1ccccn1)[C@@H]1C[C@H]1[C@@H](NP(=O)(c1ccccc1)c1ccccc1)c1ccccc1	-12	-2%	-14	-2.3	-6	0.3	-1.1
Cc1cccc(OCc2nnc(SCC(=O)N3CCc4ccccc43)n2C)c1	4	-6%	-4	1.7	-11	1.8	4.9

Remaining list, next part.
mol	Calb FLC	Vif A3G	Beta2AR agonist	HNF4A DNA FP	ALR H2O2 inh	LANA-H2A inh	RanGTP-Imp inh
CCC1CCCCN1CCCNC(=O)Cn1cnc2sc(C)c(S(=O)(=O)N3CC(C)CC(C)C3)c2c1=O (stereo not given)	4	.	59*	7.9	-17	-1.2	1.3
NC(=O)c1ccsc1NC(=O)COC(=O)c1ccc(Cl)cc1	.	-11%	-3	4.8	.	.	.
CCn1nc(C)c(C2C(C#N)=C(N)OC3=C2C(=O)CCC3)c1C (stereo not given)	-5	.	-2	-1.9	-6	-0.2	9.4
CC(C)c1ccc(CNC(=O)C2CCCN2S(=O)(=O)c2ccccc2)cc1 (stereo not given)	-22	-16%	3	-0.6	-1	-3.5	-0.6
COCCCNC(=O)Cn1c(=O)n(Cc2ccc(C(=O)NCCc3ccc(OC)c(OC)c3)cc2)c(=O)c2ccccc21	-4	-7%	3	3.6	.	2.0	-0.1
Cc1ccc(C(=O)Nc2ccc(O)cc2C(=O)O)cc1	32	5%	-4	-0.1	36	-2.5	-0.1
CN(C)c1ccc(/C=N/NC(=O)c2ccc(NC(=O)c3ccccc3)cc2)cc1	-2	-2%	-3	3.5	-3	-0.3	-2.5
O=C(COC(=O)CNC(=O)c1sc2ccccc2c1Cl)NC1CCS(=O)(=O)C1 (stereo not given)	-1	-6%	-8	-2.2	-10	3.0	-4.2
CCOC(=O)c1cnc(-n2nc(C)cc2C)nc1Nc1cccc(C(C)=O)c1	-6	-5%	-17	6.0	-5	-2.9	0.5
COc1ccccc1-n1cnc2cc(NS(=O)(=O)c3ccc(Br)cc3)ccc21	-3	-7%	-6	7.5	-10	5.0	0.7
CCOc1cccc(/C=C/c2ccc3cccc(O)c3n2)c1O	-4	.	9	1.2	-9	-4.5	-4.3
O=C1C2C3C=CC(C4CC34)C2C(=O)N1/N=C/c1c[nH]c2ccccc12 (stereo not given)	-8	8%	4	-1.5	5	9.7	-1.4

Carrying on:
mol	Calb FLC	Vif A3G	Beta2AR agonist	HNF4A DNA FP	ALR H2O2 inh	LANA-H2A inh	RanGTP-Imp inh
O=C(COc1ccc([N+](=O)[O-])cc1)NCc1ccccc1	-10	2%	1	-1.9	1	0.5	5.3
CC(C)c1ccc(NC(=O)C2CC3CCC2C3)cc1 (stereo not given)	-1	.	-6	-0.6	-2	1.2	-0.3
Cc1ccc(C)c(S(=O)(=O)N2CCN(C(=O)CSC(=S)N3CCCC3)CC2)c1	1	-5%	-14	2.5	-16	-0.5	-0.6
CC1CCCCC1NC(=O)CCCCCn1c(=S)[nH]c2ccsc2c1=O (stereo not given)	-17	.	-14	1.8	.	0.6	0.2
CC(C)CCOc1ccc(-c2c(=O)n(OCc3ccc([N+](=O)[O-])cc3)c3ccccc3[n+]2[O-])cc1	15	5%	-1	2.1	6	1.2	3.4
CC1(c2ccccc2)NC(=O)N(CC(=O)Nc2ccc(C(N)=O)cc2)C1=O (stereo not given)	5	.	4	6.9	1	-0.2	1.2
COCCNC(=O)NC12CC3CC(CC(C3)C1)C2	95*	-7%	18	-6.4	-26	1.9	-1.3
Cn1c(SCn2nnc3ccccc3c2=O)nc2ccccc2c1=O	-26	.	.	.	-3	1.2	2.0
Cc1onc(-c2ccccc2)c1C(=O)NCCc1ccncc1	1	.	1	2.3	-5	0.8	2.2
Cc1cccc(NC(=O)c2ccc(C(=O)c3ccccc3)cc2)n1	-11	-4%	9	0.7	.	.	-5.6
Cc1ccc(/C=N/NC(=O)Cc2c[nH]c3ccccc23)c(C)c1	6	3%	5	0.9	.	3.6	0.9
C=CCN=C1S/C(=C\c2ccc(Cl)cc2)C(=O)N1CC=C	-6	0%	-2	0.9	.	-0.7	-1.8

Next structures follow.
mol	Calb FLC	Vif A3G	Beta2AR agonist	HNF4A DNA FP	ALR H2O2 inh	LANA-H2A inh	RanGTP-Imp inh
Cc1cccc2cc(CN(Cc3ccccc3)C(=O)N(C)C)c(=O)[nH]c12	6	-3%	-11	-1.3	.	0.1	3.6
CCOC(=O)c1c(C)c(C(=O)NCCN2CCOCC2)c(C)n1C	-1	15%	-5	-2.5	-1	-0.5	?
C=CCC[C@@H](Cc1ccc(F)cc1)C(=O)OC[C@@H](Cc1c[nH]c2ccccc12)NC(=O)[C@H](CC=C)CC(=O)N(CCO)Cc1ccccc1	.	.	4	2.7	4	2.2	.
CC(=O)Nc1ccc(C(=O)N/N=C/c2ccccc2OCc2ccccc2)cc1	0	31%	-21	2.5	-12	-5.1	-4.6
CC(C)CN(C(=O)CN1C(=O)NC2(CCc3ccccc32)C1=O)C1CCS(=O)(=O)C1 (stereo not given)	.	-24%	-11	0.1	0	1.5	.
Clc1ccc(NC2=NCCCCC2)cc1	3	-3%	2	-0.4	0	4.7	4.0
CNC(=O)c1cc(C(=O)c2ccc(F)cc2Cl)c[nH]1	-6	-4%	7	2.9	-5	-1.0	-1.0
NC(=O)c1ccc(NC(=O)COC(=O)c2ccccc2Nc2ccccc2)cc1	-2	0%	1	3.6	0	1.0	-0.1
CC(=O)Nc1ccc(NC(=S)NC(=O)c2ccc(-c3ccccc3)cc2)cc1	5	.	-6	2.2	-8	-2.2	-1.4
Cc1cccc(C(=O)N(C)c2nnc(-c3ccncc3)s2)c1	-3	.	-3	0.5	.	5.4	-2.0
CC(C)(C)c1ccc(S(=O)(=O)NNC(=O)c2cc3ccccc3[nH]2)cc1	34	-3%	3	-0.2	27	0.4	1.0

Bioassay records deposited in PubChem BioAssay by several laboratories.
